High-throughput results deposited in PubChem by National Center for Advancing Translational Sciences (NCATS).
Cruzain Triton = blocks cruzain activity in presence of Triton detergent; 200,000 compounds, 0.43% hits; P25779; AID 1478; Potency, µM, for inactives: max response, negative = inhibition, hits mostly inhibitors; purified cruzain, Z-FR-AMC fluorescence, 0.01% Triton;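 note: plate controls were neutral wells for no effect and buffer without enzyme for full effect; nearly all actives have a fitted effect of over 40% in size; top concentration of the series not given in the record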
Target sequence (P25779 123-467 limits assumed): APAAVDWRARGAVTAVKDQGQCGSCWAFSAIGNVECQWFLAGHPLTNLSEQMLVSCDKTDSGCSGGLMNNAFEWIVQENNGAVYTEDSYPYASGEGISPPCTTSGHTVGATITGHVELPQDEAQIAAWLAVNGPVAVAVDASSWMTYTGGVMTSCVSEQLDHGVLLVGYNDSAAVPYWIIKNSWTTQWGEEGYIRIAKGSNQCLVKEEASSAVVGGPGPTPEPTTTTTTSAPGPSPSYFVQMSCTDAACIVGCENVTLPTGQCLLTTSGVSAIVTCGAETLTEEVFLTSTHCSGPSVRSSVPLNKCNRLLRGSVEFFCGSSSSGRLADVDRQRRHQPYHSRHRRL
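Steps: dispense cruzain (1.5 nM final) in acetate buffer pH 5.5 with DTT and 0.01% Triton X-100; pin-transfer compounds; incubate 15 min RT; add Z-FR-AMC (2 uM final); read fluorescence every 30 s, using the 60 s intensity change.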
NS1 inh = inhibitors of influenza NS1 protein function; S. cerevisiae slowed by influenza A NS1, growth recovery by OD600; Potency, µM (doses to about 46.1 µM), for the others: at the top dose activity, positive = more growth; 270,000 compounds, 0.4% hits; active means well fitted rising curve with a large enough effect; inconclusive means small, poorly fitted or top-dose-only effect; inactive means no such curve, though single readings can be large or run the other way; note: nearly all actives have a fitted effect of over 50% in size
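S. cerevisiae expressing influenza A NS1, grown in glucose, washed, then diluted 1:100 into pH 6.0 -URA galactose medium with 23 nl compound. Growth recovery read as OD600; NS1-free strain serves as control.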
SARS PLP yeast = inhibitors of SARS-CoV papain-like protease in yeast. S. cerevisiae expressing SARS-CoV PLpro, growth rescue; control for the full effect not named in the record. Potency, µM (top dose mostly 32.9 µM), without a hit: top-dose activity, positive = growth rescue. 330,000 compounds, 0.19% hits; active means well fitted rising curve with a large enough effect; inconclusive means small, poorly fitted or top-dose-only effect; inactive means no such curve, though single readings can be large or run the other way; note: 0% is about no effect; nearly all actives have a fitted effect of over 55% in size; growth read by luminescence after 48 h
LASV entry inh = inhibitors of Lassa virus binding or cell entry | Lassa virus pseudotype entry inhibition, cell reporter; control for the full effect not named in the record | Potency, µM (doses to about 37.9 µM), without a hit: top-dose activity change, negative = inhibition, hits mostly inhibitors | 300,000 compounds, 1.2% hits | AID 540256; active means well fitted inhibition curve with a large enough effect; inconclusive means small, poorly fitted or top-dose-only effect, or effect the other way; inactive means flat fitted curve, though single readings scatter; tested in HEK293 cells; note: % is set by controls: 0 for no effect and ±100 for the full control effect; nearly all actives have a fitted effect of over 50% in size; luciferase read-out
RE007 growth inh = less growth of the S. pombe RE007 Vpr strain; S. pombe RE007 Vpr strain, BacTiter-Glo ATP luminescence, 24 h; control for the full effect not named in the record; Potency, µM (titrated, usually from 92.2 µM), for inactives: at the top dose activity change, negative = less growth; 360,000 compounds, 0.21% hits; AID 651644; active = well fitted falling curve with a large enough effect; inconclusive = small, poorly fitted or top-dose-only effect; inactive = no such curve, though single readings can be large or run the other way;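 note: % is set by controls: 0 for no effect and ±100 for the full control effect; nearly all actives have a fitted effect of over 50% in size; the assay follows cell death caused by Vpr and the record does not say whether a fall means rescue or toxicity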
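Fission yeast strain RE007, carrying one chromosomally integrated HIV-1 vpr copy, was seeded at OD 0.01 in PMG+AL medium with 23 nL pinned compound. After 24 h at 30 °C and 99% humidity, viability was read by BacTiter-Glo luminescence.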
2A StopGo = FMDV 2A StopGo reporter, luciferase signal | human cells with a luciferase reporter of 2A StopGo recoding; control for the full effect not named in the record | Potency, µM (highest dose often 57.9 µM), without a hit: at the top dose signal change, negative = less light | 410,000 compounds, 1.2% hits | AID 1159524; active = well fitted falling curve with a large enough effect; inconclusive = small, poorly fitted or top-dose-only effect; inactive = no such curve, though single readings can be large or run the other way; tested in HEK293T cells; note: % is set by controls: 0 for no effect and ±100 for the full control effect; nearly all actives have a fitted effect of over 45% in size; luciferase light after 4 h
Marburg entry inh = blocks Marburg virus binding to or entry into cells; Marburg virus pseudotyped entry inhibition, cell reporter; control for the full effect not named in the record; about a third of the inactives were read at about 46 µM; AID 540276; Potency, µM (top dose mostly 37.8 µM), inactives show at the highest dose activity change, negative = inhibition, most hits filed as inhibitors; 300,000 compounds, 1.8% hits; active = well fitted inhibition curve with a large enough effect; inconclusive = small, poorly fitted or top-dose-only effect, or effect the other way; inactive = flat fitted curve, though single readings scatter; tested in HEK293 cells; about a fifth of its hits are not listed in these tables; note: % is set by controls: 0 for no effect and ±100 for the full control effect; luciferase read-out
Cruzain noTriton = blocks cruzain activity in detergent-free assay | P25779 | purified cruzain, Z-FR-AMC fluorescence, no detergent | Potency, µM, for inactives: max response, negative = inhibition, hits mostly inhibitors | 200,000 compounds, 2.3% hits;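 note: plate controls were enzyme without inhibitor for no effect and buffer without enzyme for full effect; nearly all actives have a fitted effect of over 40% in size; top concentration of the series not given in the record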
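Purified cruzain at 1.5 nM, pre-incubated 15 min with compound at room temperature in 100 mM sodium acetate pH 5.5, 5 mM DTT, 0.00005% Triton X-100. Reaction started with 2 uM Z-FR-AMC; AMC fluorescence increase over 60 s gives rate.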
* marks the source's active call; other numbers are inactive results; u = inconclusive; x = not tested or not shown; [ ] = another dose, or the depositor's remark. Unless noted, calls come from the whole dose curve; as a rule, active = well fitted curve in the direction sought with a large enough effect; inconclusive = small, poorly fitted or top-dose-only effect, or another doubt; inactive = no such curve, though single readings can be large; an effect the other way counts as inactive or inconclusive. Potency is the fitted concentration of half-maximal effect.

SMILES | Cruzain Triton | NS1 inh | SARS PLP yeast | LASV entry inh | RE007 growth inh | 2A StopGo | Marburg entry inh | Cruzain noTriton
CCOc1ccccc1C1C(C#N)=C(N)Oc2cc(C)n(C)c(=O)c21 (stereo not given) | -3.7% | 8% | 5% | -1% | -4% | 0% | 21% | 0%
COc1ccc2c(c1)NC(c1ccc(N(C)C)cc1)c1cccn1-2 (stereo not given) | x | 4% | -3% | -6%[46.1 µM] | -15% | -6% | u | x
COc1ccc(OCC(=O)Nc2ccc(N3CCC(C)CC3)cc2)cc1 | x | x | -1% | -9%[46.1 µM] | -17% | -17% | u | x
NS(=O)(=O)c1ccc(CNS(=O)(=O)c2ccc(Cl)nc2)cc1 | x | x | -1% | 19%[46.1 µM] | 0% | 13% | -2%[46.1 µM] | x
CCOC(=O)C1=C(C)NC(=O)NC1c1ccc(Cl)cc1Cl (stereo not given) | -1.8% | 8% | 3% | -1% | -1% | -16% | -11% | -9%
CCCNC(=O)c1ccc(-c2nc(CS(=O)(=O)c3ccc(C)cc3)c(C)o2)cc1 | -0.7% | x | x | -1%[46.1 µM] | x | -5% | x | 0%
COCCN(CCOC)Cc1c(C)[nH]c2ccccc2c1=O | 0.8% | -1% | 2% | 15% | -5% | -24% | 22% | 1%
C/C(CC(=O)NCc1ccco1)=N\NC(=O)c1ccc([N+](=O)[O-])cc1Cl | x | 9% | -3% | 9%[46.1 µM] | -17% | 10% | -4%[46.1 µM] | x
CCOc1ccccc1NC(=O)c1ccc(F)c(S(=O)(=O)N2CCN(c3ccc(F)cc3)CC2)c1 | 0.0% | x | x | -9%[46.1 µM] | x | -21% | x | -1%
Cc1cc(OCC(=O)N2CCC[C@@H]2C(=O)O)c2c(C)c(C)c(=O)oc2c1 | x | 6% | -11% | x | -6% | -9% | x | x
CCC(C)NC(=O)c1ccc(CN2CCc3ccccc3C2)cc1 (stereo not given) | x | -4% | -1% | x | -7% | -12% | x | x
Cc1csc(NC(=O)CSc2nnc(-c3ccoc3C)o2)n1 | 2.2% | 9% | -1% | u | 16% | 25% | -5% | 9%
Cc1nc(-c2nc(-c3c(C(=O)NNC(=O)Nc4cccc(Cl)c4)noc3C)cs2)cs1 | x | 1% | -3% | 6% | 9% | -19% | u | x
CCn1cc(CN2CCN(Cc3ccsc3)C(CCO)C2)cn1 (stereo not given) | x | 3% | 0% | -2%[46.1 µM] | -23% | -12% | 19%[46.1 µM] | x
CCOC(=O)c1cccc(N2C(=O)Nc3ccccc3N2O)c1 | -0.1% | 8% | 7% | 5% | 5% | -12% | 0% | -10%
Cc1cc(/C=C2/C(=N)N3C(=NC2=O)SN=C3S(C)(=O)=O)c(C)n1-c1ccccc1 | x | x | 0% | u | 4% | 8% | u | x
NS(=O)(=O)c1cccc(NC(=O)COC(=O)c2ccccc2SCC(=O)N2CCCC2)c1 | x | x | -4% | u | -19% | -6% | 7% | x
Cc1ccc(S(=O)(=O)NNC(=O)c2ccc(F)cc2)cc1 | x | 0% | 7% | x | -1% | 25% | x | x
COc1cc(/C=C/C(=O)OCC(=O)NC(=O)NC(C)(C)C)cc(OC)c1OC | x | x | -2% | 4% | 5% | 0% | 21%[46.1 µM] | x
Cc1cc(OCCCCOc2ccc(S(N)(=O)=O)c(C)c2)ccc1S(N)(=O)=O | x | 0% | 6% | x | 17% | u | x | x
C=CCn1c(O)c(N=NC(=S)Nc2cccc(C)c2)c2ccccc21 | -1.7% | u | u | u | 4% | -38% | u | u
N#C/C(=C\c1cccnc1)C(=O)Nc1ccc(Cl)cc1 | x | 3% | -2% | -10%[46.1 µM] | -9% | 11% | -24%[46.1 µM] | x
COc1ccccc1CNC(=O)CCS(=O)(=O)c1ccc2c(c1)oc(=O)n2C | 0.5% | x | x | u | x | -10% | x | -9%
C[C@H](NC(=O)COc1ccccc1)C(=O)OCC(=O)c1cc2ccccc2o1 | x | x | x | 6%[46.1 µM] | -11% | 18% | 0%[46.1 µM] | x
CC1C(C#N)=C(N)OC2=C1C(=O)CC(c1ccccc1)C2 (stereo not given) | x | x | -1% | -9%[46.1 µM] | -15% | -7% | 24%[46.1 µM] | x

Five entries from above, as a markdown table:
| SMILES | Cruzain Triton | NS1 inh | SARS PLP yeast | LASV entry inh | RE007 growth inh | 2A StopGo | Marburg entry inh | Cruzain noTriton |
| --- | --- | --- | --- | --- | --- | --- | --- | --- |
| NS(=O)(=O)c1ccc(CNS(=O)(=O)c2ccc(Cl)nc2)cc1 | x | x | -1% | 19%[46.1 µM] | 0% | 13% | -2%[46.1 µM] | x |
| CCOC(=O)C1=C(C)NC(=O)NC1c1ccc(Cl)cc1Cl (stereo not given) | -1.8% | 8% | 3% | -1% | -1% | -16% | -11% | -9% |
| CCCNC(=O)c1ccc(-c2nc(CS(=O)(=O)c3ccc(C)cc3)c(C)o2)cc1 | -0.7% | x | x | -1%[46.1 µM] | x | -5% | x | 0% |
| COCCN(CCOC)Cc1c(C)[nH]c2ccccc2c1=O | 0.8% | -1% | 2% | 15% | -5% | -24% | 22% | 1% |
| C/C(CC(=O)NCc1ccco1)=N\NC(=O)c1ccc([N+](=O)[O-])cc1Cl | x | 9% | -3% | 9%[46.1 µM] | -17% | 10% | -4%[46.1 µM] | x |

(next part)
SMILES | Cruzain Triton | NS1 inh | SARS PLP yeast | LASV entry inh | RE007 growth inh | 2A StopGo | Marburg entry inh | Cruzain noTriton
O=C(COc1ccccc1O)NNc1ccccc1 | -2.5% | -8% | 2% | u | 123% | 31%[activator] | 8% | -7%
CCOC(=O)c1cnc(N)nc1-c1ccccc1 | x | x | x | 13% | -14% | -25% | -4% | x
Cc1cccc(NC(=O)c2sc(NC(=O)COc3ccccc3)c(C#N)c2C)c1C | -1.5% | 1% | 18% | 2% | -2% | -29% | -5% | -28%
COc1ccc(C)cc1NC(=O)c1nnn(CC(=O)Nc2c(C)cccc2C)c1N | 1.3% | x | x | -26%[46.1 µM] | x | -1% | x | -1%
Cc1cc(C)c(S(=O)(=O)c2cccc(Br)c2C)c(=O)[nH]1 | x | 0% | 0% | -7% | -21% | 59%[activator] | 18% | x
O=C(NCc1ccc(F)cc1)C1CCCN(C(=O)Nc2ccccc2)C1 (stereo not given) | -0.3% | -5% | -1% | -7% | -5% | -15% | -12% | -2%
CCOC(=O)C1(Cc2cccc(OC)c2)CCN(Cc2cnc(N)nc2)CC1 | x | -1% | 0% | 6% | -4% | -18% | u | x
Cc1ccc(C2CC(=O)Nc3cc4c(cc32)OCCO4)cc1 (stereo not given) | -2.9% | x | x | -29%[46.1 µM] | x | -20% | u | -26%
Cc1ccc(Cl)cc1-n1ncc2c(NC3CCCCC3)ncnc21 | -0.8% | x | x | u | x | u | x | 0%
CC(=O)Nc1cc(-c2nn3c(C)nnc3s2)ccc1C | 2.4% | u | 21% | x | -7% | 2% | x | 18%
CC1CC(=O)Nc2ccccc2N1C(=O)COc1ccc2cc(Br)ccc2c1 (stereo not given) | x | x | 2% | u | 2% | u | -15% | x
Cc1nn(CC(=O)NCCc2ccccc2)c(=O)c2cc3occc3n12 | x | 12% | -2% | 12%[46.1 µM] | 11% | 13% | 12%[46.1 µM] | x
CCOc1ccc(NC(=O)Cn2c(=O)n(CC(=O)NCCc3ccccc3)c(=O)c3sccc32)cc1 | -3.5% | x | x | 3%[46.1 µM] | x | -17% | -16%[46.1 µM] | -1%
CC(C(=O)Nc1ccc(Cl)cc1Cl)N1CC=C(c2ccccc2)CC1 (stereo not given) | -6.6% | -11% | -34% | -21% | -24% | u | u | 4%
O=C(Nc1cc(Cl)ccc1F)C1=COCCO1 | x | x | -2% | 17% | -7% | 9% | 14%[46.1 µM] | x
CC(C)(CN1CCc2ccccc2C1)NS(=O)(=O)c1ccccc1 | x | -5% | -1% | -8% | -13% | -6% | 9%[46.1 µM] | x
COC(=O)c1ccc(C(c2c(C)n(C)n(-c3ccccc3)c2=O)c2c(C)n(C)n(-c3ccccc3)c2=O)cc1 | x | 10% | -4% | x | 0% | -10% | x | x
CCCCCCNC(=O)Cc1c(O)c2ccccc2[nH]c1=O | 0.8% | -35% | u | -16% | 2% | 6% | -6% | -16%
O=C(CN(CCc1ccccc1)S(=O)(=O)c1ccc(Cl)cc1)N/N=C/c1ccc2c(c1)OCO2 | -2.8% | -11% | -17% | -20% | -12% | -9% | 1% | -12%
O=C(CN(C(=O)CCC(=O)Nc1nccs1)c1ccccc1F)NCc1ccccc1 | x | 20% | 0% | -7% | -4% | 10% | -13%[46.1 µM] | x
COc1cc(C2C3=C(Nc4nc(N)[nH]c(=O)c42)c2ccccc2C3=O)ccc1O (stereo not given) | x | -16% | 0% | 0% | -19% | -21% | 9%[46.1 µM] | x
COc1c(Cl)cccc1-c1cn2ccc(C)cc2n1 | x | -36% | -14% | u | -12% | 0% | u | x
COc1ccc(C2C(C#N)=C(N)Oc3cc(C)[nH]c(=O)c32)cc1OC (stereo not given) | x | 1% | 1% | x | 87% | -9% | x | x
O=C(CSc1nnc(Cc2ccccc2)o1)c1ccc(F)cc1 | x | -2% | 0% | -12% | -6% | 16% | -1%[46.1 µM] | x
N#Cc1cccc(NC(=O)C2CCN(c3nc(-c4ccc(Cl)cc4)no3)CC2)c1 | -8.0% | x | x | 8%[46.1 µM] | x | 25µM* | x | 1%
Cc1ccnc(NC(=O)c2cccc3ccccc23)c1 | x | -55% | -8% | -16%[46.1 µM] | -28% | 29% | u | x
CCOc1ccc(C(=O)Nc2cccc(C(=O)OCc3cc(=O)n4nc(C5CC5)sc4n3)c2)cc1 | -0.2% | x | x | 29%[46.1 µM] | x | u | x | 20%
CCc1nnc(NC(=O)c2cccc(S(=O)(=O)N(C)c3ccccc3)c2)s1 | -1.4% | 1% | -3% | 4% | -9% | 2% | 21% | u
COc1ccc(N2CCN(CC(O)c3c[nH]c4ccc(OC)cc34)CC2C)cc1 (stereo not given) | 6.3% | u | 1% | u | -9% | u | -26%[46.1 µM] | -15%

Outcome played no part in choosing rows; overall some 4.6% were active at least once.
